Assay outcomes deposited in PubChem BioAssay by ICCB-Longwood Screening Facility, Harvard Medical School.
Polio RdRp inh: inhibitors of poliovirus RNA polymerase binding and polymerization; poliovirus polymerase elongation, fluorescence polarization; hits give low values; 0.66% of 150,000 active; % elongation, % (compound at 16.7 µg/mL); P03300; AID 588519; in the data active = % elongation below about 90%; note: some results filed as inactive read as strong as hits
Target sequence (P03300 1749-2209 limits assumed): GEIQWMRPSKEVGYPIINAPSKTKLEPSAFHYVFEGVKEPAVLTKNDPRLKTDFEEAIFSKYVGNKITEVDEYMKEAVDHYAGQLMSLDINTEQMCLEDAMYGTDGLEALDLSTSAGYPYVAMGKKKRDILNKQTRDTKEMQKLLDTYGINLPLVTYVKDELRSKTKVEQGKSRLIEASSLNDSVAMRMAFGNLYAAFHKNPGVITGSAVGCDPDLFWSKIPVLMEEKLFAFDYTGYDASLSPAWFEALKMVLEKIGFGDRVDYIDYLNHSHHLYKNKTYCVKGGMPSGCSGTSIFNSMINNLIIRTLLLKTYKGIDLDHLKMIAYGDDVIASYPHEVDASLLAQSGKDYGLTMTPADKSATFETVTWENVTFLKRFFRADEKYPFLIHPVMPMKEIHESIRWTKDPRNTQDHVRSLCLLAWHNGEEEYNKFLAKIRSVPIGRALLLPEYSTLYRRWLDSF
Polio RdRp inh intensity: recorded beside Polio RdRp inh, whose call it bears; % elongation; measured here: total intensity read-out; formula for this scale not given here;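 total fluorescence in place of polarization; lower means less elongation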
Numbers without * were called inactive.

SMILES	Polio RdRp inh	Polio RdRp inh intensity
CCOc1cccc2sc(=NC(=O)c3ccc(S(=O)(=O)N4CCOCC4)cc3)n(C)c12	98	100
COc1ccc(-c2cccc(NS(=O)(=O)c3cc(C)ccc3OC)c2)nn1	100	97
CCOc1ccc(NC(=O)Cn2cc(C(=O)c3ccc(C)c(C)c3)c(=O)c3cc4c(cc32)OCCO4)cc1	101	106
Nc1cc(=O)nc(SCC(=O)Nc2ccc(F)cc2)n1CCc1ccccc1	107	112
CCCc1cnc2c(c1SCc1cccc(F)c1)c(=O)n(C)c(=O)n2C	105	106
Cc1oc2ncnc(N3CCCCC3)c2c1C(=O)NCC1CCN(Cc2ccc(F)cc2)CC1	106	115
O=C(Nc1cccc(Cl)c1)c1c(NC(=O)C(F)(F)F)sc2c1CCCC2	79*	76*
Cc1ccc(CCNC(=O)c2c[nH]c3ccc(S(=O)(=O)Nc4cccc(C(F)(F)F)c4)cc3c2=O)cc1	98	101
COc1cc(-c2noc(-c3ccc(N4CCCC4)c([N+](=O)[O-])c3)n2)cc(OC)c1OC	110	117
Cc1ccc(C)c(N2CCN(CCCNC(=O)c3ccc4nc(CCc5ccccc5)oc4c3)CC2)c1	110	112
CCOc1ccc(Sc2cc(C(=O)NCc3ccccc3Cl)c3ccccc3n2)cc1	112	114
CC(=O)N1CCc2c(sc3c2c(=O)n(-c2ccccc2)c(=O)n3CC(=O)Nc2cc(C)cc(C)c2)C1	107	110
CC(=O)Nc1nnc(SCc2cc(=O)c3cccc(Cl)c3[nH]2)s1	100	107
Cc1ccc(C)c(N2CCN(C(=O)c3cc4cc5ccc(C)cc5nc4s3)CC2)c1	117	119
CC(CNC(=O)CCCn1c(=O)c2cccn2c2cccnc21)c1ccccc1 (stereo not given)	98	102
Cc1cc(C)cc(-n2c(-c3ccccc3)c(C)n3c4c(=O)n(C)c(=O)n(C)c4nc23)c1	106	111
CCc1ccc(NC(=O)c2ccc3oc(=O)n(Cc4ccccc4)c3c2)cc1	101	97
CCOC(=O)c1cccc(NS(=O)(=O)c2cc(-c3cnc(C)o3)ccc2OC)c1	99	104
Cn1c(=O)c2c(nc(N3CCOCC3)n2Cc2ccccc2F)n(C)c1=O	113	117
COc1cc(NS(=O)(=O)c2ccc3[nH]c4c(c3c2)CCCCCC4)cc(OC)c1	104	104
Fc1ccc(Nc2nc(SCc3ccc(Cl)cc3)nc3ccccc23)cc1	101	103
COc1ccc2c(CNCCc3ccco3)c(C(=O)O)n(Cc3ccc(C)cc3)c2c1	111	111
CC1(C)C(=O)N(CC(=O)Nc2ccc(Br)cc2F)c2ccccc21	100	107
CC(=O)c1cc(-c2ccccc2)n(CC(=O)NC2CCCCC2)c1C	105	112
CCN(CC)c1nn2c(=O)c(C(=O)NCc3ccc(F)cc3)cnc2s1	106	105
Cc1cc(C)n(-c2nc3ccccc3nc2Nc2cccc(C)c2C)n1	102	106
CN1CCN(C(=O)c2ccc3c(c2)N(Cc2ccc(F)cc2)C(=O)c2ccccc2S3=O)CC1 (stereo not given)	108	111
Cc1nc2ccc(S(=O)(=O)NC(C(=O)N3CCN(c4cccc(Cl)c4)CC3)C(C)C)cc2s1 (stereo not given)	107	108
COc1ccc(OC)c(C2C(C(=O)N3CCCCC3)=C(C)Nc3nc4ccccc4n32)c1 (stereo not given)	103	107
Cn1c(=O)c2c(nc(SCC(=O)Nc3ccccc3F)n2Cc2ccccc2F)n(C)c1=O	105	106

Compounds shown so far that have an NH in an aromatic ring (3):
SMILES	Polio RdRp inh	Polio RdRp inh intensity
Cc1ccc(CCNC(=O)c2c[nH]c3ccc(S(=O)(=O)Nc4cccc(C(F)(F)F)c4)cc3c2=O)cc1	98	101
CC(=O)Nc1nnc(SCc2cc(=O)c3cccc(Cl)c3[nH]2)s1	100	107
COc1cc(NS(=O)(=O)c2ccc3[nH]c4c(c3c2)CCCCCC4)cc(OC)c1	104	104

Compound profiles, from the list above:
CC1(C)C(=O)N(CC(=O)Nc2ccc(Br)cc2F)c2ccccc21 across the screens: Polio RdRp inh = 100; Polio RdRp inh intensity = 107
CCOc1ccc(Sc2cc(C(=O)NCc3ccccc3Cl)c3ccccc3n2)cc1 across the screens: Polio RdRp inh = 112; Polio RdRp inh intensity = 114

Sorted by SMILES length (falling): part of the list above.
SMILES	Polio RdRp inh	Polio RdRp inh intensity
COc1ccc(OC)c(C2C(C(=O)N3CCCCC3)=C(C)Nc3nc4ccccc4n32)c1 (stereo not given)	103	107
CCN(CC)c1nn2c(=O)c(C(=O)NCc3ccc(F)cc3)cnc2s1	106	105
Cc1cc(C)n(-c2nc3ccccc3nc2Nc2cccc(C)c2C)n1	102	106

(continued)
SMILES	Polio RdRp inh	Polio RdRp inh intensity
CCOC(=O)c1ccccc1NC(=O)c1nn(C)c2c1COc1ccccc1-2	114	117
CCOc1ccc(C2c3c(oc4ccc(C)cc4c3=O)C(=O)N2c2nc(C)c(C)s2)cc1OC (stereo not given)	101	99
COC(=O)c1ccccc1NC(=O)C1=CC(c2ccc3c(c2)OCO3)=NS(=O)(=O)N1C	142	164
O=C(Cn1c(=O)n(Cc2ccco2)c(=O)c2cccnc21)Nc1ccccc1F	102	105
CC(C)c1ccc(N2C(=O)N(Cc3cccc([N+](=O)[O-])c3)c3ccccc3S2(=O)=O)cc1	114	118
Cc1ccc(Cn2c(=O)c3cccnc3n(CC(=O)Nc3cc(Cl)ccc3C)c2=O)cc1	108	110
Cc1ccc(C(=O)Nc2nnc(S(=O)(=O)N3CCc4ccccc43)s2)cc1	112	110
CCOc1ccc(Nc2ncnc3scc(-c4ccc(OC)cc4)c23)cc1	108	113
COc1ccc(Cl)cc1NC(=O)c1cc2c(s1)-c1ccccc1OC2	106	110
COc1ccc(OCCn2c(C3CC(=O)N(c4ccc(F)cc4)C3)nc3ccccc32)cc1 (stereo not given)	111	115
Cc1cc(C)cc(NC(=O)CSc2nnc(COc3ccccc3Cl)o2)c1	105	105
COC(=O)C(C)Sc1ncnc2c1c(-c1ccccc1)cn2-c1ccc(F)cc1 (stereo not given)	110	107
CC(C)NC(=O)Cc1csc2nc(-c3ccccc3)cn12	104	95
Cc1cccc(Cn2c(-c3ccccc3)nc3ccccc32)c1	108	109
Cc1cn2c(=O)cc(COc3ccc(C(C)(C)C)cc3)nc2s1	107	109
CCc1ccc(NC(=O)CCCc2nnc3n(CCCOC)c(=O)c4sccc4n23)cc1	118	123
CCN(CC)C(=O)c1ccccc1NC(=O)c1cccc(S(=O)(=O)N2CCC(C)CC2)c1	106	100
CC1=Nc2cc(C(=O)NCc3ccccc3Cl)ccc2Sc2c(C)ccc(C)c21	105	111
Cc1cccc(Cn2c(C)c(C)c3cc(C(=O)NCc4ccco4)ccc32)c1	109	108
COc1ccc(NC(=O)c2ccco2)cc1NC(=O)COc1ccc(C)cc1C	107	110
Cc1c(C(=O)N(C)C)sc2c1c(=O)n(-c1ccc(Cl)c(Cl)c1)c(=O)n2CC(=O)Nc1ccc(Br)cc1F	112	101
CCCNC(=O)CCc1nnc2ccc(N3CCN(c4cccc(OC)c4)CC3)nn12	116	121
Cc1ccc(Cn2c(CNC(=O)CCc3ccccc3)nc3cccnc32)cc1	119	120
COc1ccc(OC)c(NC(=O)CSc2nc(=O)n(CCN(C)C)c3c2CCC3)c1	109	108
Cc1cc(C)n(-c2nnc(Nc3ccc(C)c(Cl)c3)c3ccccc23)n1	106	106
Cc1cn2c(=O)cc(COc3ccccc3NC(=O)c3ccco3)nc2s1	105	108
CS(=O)(=O)NCC(c1ccco1)N1CCN(c2ccc(F)cc2)CC1 (stereo not given)	112	114
O=C(c1ccc(Cl)cc1)n1nc(-c2ccco2)nc1NCc1cccs1	108	113
CC(=O)N1CCc2cc(Br)cc(S(=O)(=O)N3CCN(c4cc(C)ccc4C)CC3)c21	104	107
COc1ccc(-c2cc(C(F)(F)F)nc(SCCC(=O)Nc3cccc(O)c3)n2)cc1	109	111
CC(=O)Nc1ccc(Nc2ncnc3sc4c(c23)CCCC4)cc1	99	101
Cc1cccc(-c2noc(-c3ccc(NCc4ccccc4)c([N+](=O)[O-])c3)n2)c1	109	112
COc1cc(NC(=O)COCc2cc(-c3ccc(F)cc3)on2)cc(OC)c1OC	113	110
O=C(Nc1cccc(C(F)(F)F)c1)c1noc2c1CCc1ccccc1-2	104	106
COc1ccc(N2CCN(Cc3nnc(-c4ccc5c(c4)OCO5)o3)CC2)cc1	107	109
COCCCNc1nc2c(S(=O)(=O)c3ccccc3)nnn2c2ccc(Cl)cc12	103	108
Cc1oc2ccc(O)c(CN3CCCC3)c2c1C(=O)Nc1ccccc1	108	114
Cc1cccc(N2CCN(C(=O)CCc3c(C)nc4ncnn4c3C)CC2)c1C	105	105
CSc1ccccc1-c1nnc(NC(=O)c2ccc3c(c2)OCCO3)o1	118	116
CCOC(=O)c1c(NC(=O)COc2cccc(C)c2C)sc2c1CCC(CC)C2 (stereo not given)	110	111
CN(Cc1ccccc1)c1ccc2cc(S(=O)(=O)N3CCCCC3)ccc2n1	102	102
O=C(Cc1cccs1)NC1CC(=O)N(c2cccc(F)c2)C1 (stereo not given)	111	106
Cc1cc(C)n(-c2nc3ccccc3nc2Nc2cc(C(=O)O)ccc2C)n1	108	112
Cc1c(Cl)cccc1NC(=O)CSc1ncc2c(n1)-c1ccccc1N(C)S2(=O)=O	109	115
CC(C)c1ccc2oc(-c3cc(NC(=O)c4cccs4)ccc3Cl)nc2c1	106	108
Cc1nn(-c2nc(-c3ccc(F)cc3)cc(C(F)(F)F)n2)c(C)c1Br	103	103
CN(Cc1ccccc1)c1ccc(-c2nc(-c3ccco3)no2)cc1[N+](=O)[O-]	113	117
COc1ccccc1N1CCN(S(=O)(=O)c2c(C)sc3ncn(CC(=O)Nc4ccccc4F)c(=O)c23)CC1	110	110
Cc1nn(CCCC(=O)NCc2ccccc2)c(=O)c2c1sc1ccccc12	106	99
O=C(CSc1nnc(-c2ccc(O)cc2)o1)c1ccc(Br)cc1	106	105

New compounds follow.
SMILES	Polio RdRp inh	Polio RdRp inh intensity
Cn1ccc2c(OCC(=O)NCc3ccccc3)cccc2c1=O	107	109
Cc1cccc(N(C)C(=O)C(Cc2ccccc2)NS(=O)(=O)c2cccc3nsnc23)c1 (stereo not given)	100	100
CCCCOc1ccc(C(=O)N2CCN(CCc3ccccn3)CC2)cc1	101	103
COc1cccc(NC(=O)CSc2c3c(nc4ccccc24)CCCC3)c1	103	106
O=C(CCC(=O)N1CC2CCCN2c2ccccc21)NCc1ccccc1F (stereo not given)	107	91
CC(=O)c1cccc(-n2c(=O)c3c4c(sc3n(CC(=O)c3ccccc3)c2=O)CN(C(C)=O)CC4)c1	105	108
CC(C)NC(=O)c1ccc2c(c1)N(Cc1cccc(Cl)c1)C(=O)c1ccccc1S2=O (stereo not given)	107	110
COc1cccc(-c2cn3c(n2)sc2cc(C(=O)NC4CCCCCC4)ccc23)c1	104	107
CCOC(=O)c1cc2c(=O)n3ccccc3nc2n(CC2CCCO2)c1=NC(=O)c1ccc(OCC)cc1 (stereo not given)	108	114
CCCN(CCC)S(=O)(=O)c1ccc2c(c1)N(CC(=O)NC(C)c1ccccc1)C(=O)CS2 (stereo not given)	106	115
CCOc1ccc(CCNC(=O)c2cc3c(-c4ccc(OC)c(OC)c4)nn(C)c3s2)cc1OCC	99	84
Cc1nc(-c2cccc(F)c2)sc1CCNC(=O)C(=O)Nc1ccc2c(c1)OCO2	102	100
Cc1ccc(CC(=O)Nc2c(C(=O)N3CCN(c4ccccc4F)CC3)oc3ccccc23)cc1	109	114
Cc1ccc(Cn2ccnc2SCC(=O)NC2CCCC2)cc1	107	113
Cc1ccn2c(c1)nc(=O)c1cc(S(=O)(=O)N3CCCCC3)c(Cl)cc12	109	111
O=C(OCc1cc(=O)n2nc(C3CC3)sc2n1)c1ccccc1Cl	106	111
Cc1cccc(N(C)C(=O)Cc2c(C(=O)O)[nH]c3ccccc23)c1	105	105
CCc1ccc2occ(CC(=O)Nc3nnc(C)s3)c2c1	115	116
O=C1c2[nH]nc(-c3ccccc3O)c2C(c2ccccc2F)N1Cc1ccncc1 (stereo not given)	102	108
CC(CNc1nc2ccccc2c2nc(-c3ccccc3)nn12)c1ccccc1 (stereo not given)	101	102

Taken from above.
Result for `CCc1ccc2occ(CC(=O)Nc3nnc(C)s3)c2c1` under Polio RdRp inh intensity: 116
Result for `Cc1ccn2c(c1)nc(=O)c1cc(S(=O)(=O)N3CCCCC3)c(Cl)cc12` under Polio RdRp inh intensity: 111
Result for `Cc1nc(-c2cccc(F)c2)sc1CCNC(=O)C(=O)Nc1ccc2c(c1)OCO2` under Polio RdRp inh intensity: 100
Result for `Cc1cccc(N(C)C(=O)Cc2c(C(=O)O)[nH]c3ccccc23)c1` under Polio RdRp inh: 105
Result for `O=C1c2[nH]nc(-c3ccccc3O)c2C(c2ccccc2F)N1Cc1ccncc1` (stereo not given) under Polio RdRp inh: 102
Result for `Cc1ccc(Cn2ccnc2SCC(=O)NC2CCCC2)cc1` under Polio RdRp inh intensity: 113

Further entries
SMILES	Polio RdRp inh	Polio RdRp inh intensity
Cc1nc(S(=O)(=O)N2CCN(c3ccc(Cl)cc3)CC2)cn1C	102	110
CC(=O)Cn1nnc2sc(-c3ccccc3)cc2c1=O	117	126
CC1CCc2c(sc(NC(=O)C3c4ccccc4Oc4ccccc43)c2C#N)C1 (stereo not given)	96	93
CC(C)c1ccc(Nc2nc3ccc(C(=O)c4ccccc4)cc3n3cnnc23)cc1	104	101
Cc1cccc(-n2ccnc2SCC(=O)Nc2ccc3c(c2)OCO3)c1	103	113
CC(C)Oc1ccc(CNC(=O)c2ccc(NC(=O)N3CC(C)Sc4ccccc43)cc2)cc1 (stereo not given)	110	112
CC(C)OCCCNc1ncnc2sc3c(c12)CCCC3	-2.0*	30*
CCn1cc2nc(SCC(=O)Nc3ccc(OC)c(OC)c3)n(Cc3ccc(Cl)cc3)c(=O)c2n1	107	112
Cc1cccc(Cn2c(SCc3ccc(C(=O)NC4CCCCC4)cc3)nc3ccncc32)c1	105	109
CCCc1ccc(OC(=O)CSc2nnc(-c3cccs3)o2)cc1	108	106
CCc1ccccc1NC(=O)Cn1c(=O)n(CC(=O)NCCc2ccccc2)c(=O)c2ccccc21	107	108
COC(=O)c1ccc2c(=O)n(CCCCCC(=O)N3CCN(c4cc(Cl)ccc4C)CC3)c(=O)[nH]c2c1	108	100

Some of the compounds tested (hit frequency here may not be typical).
